Source: PubChem BioAssay
Yeast UUG start: alters start codon recognition fidelity in yeast; 0.13% of 350,000 active; activity score, % at 18.7 µM; S. cerevisiae UUG-firefly luciferase reporter, luminescence/redox ratio;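 active means replicate mean at a twofold rise or more, about +100% in these data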;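 further: firefly luciferase made from a UUG start codon reports start codon fidelity; reporter light over untreated wells divided by growth signal over untreated wells; some hits fall short of that in this replicate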
HIV Env fusion: HIV envelope-mediated fusion inhibition; HeLa-JRFL Env/CEM21 cell fusion, luciferase; inhibition, % at 12.3 µM; 1.1% of 360,000 active; AID 651610;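 active means mean replicate inhibition score of at least 50 and every replicate individually at or above 50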;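 further: 0% = plate neutral controls and 100% = maraviroc near 300 nM; one replicate is shown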
Active calls of the source: *; i = inactive; [ ] = another dose, or the depositor's remark. Not all compounds are listed; rates above refer to the full screens.

Below each SMILES – HIV Env fusion	Yeast UUG start
- C[C@@H]1CN([C@@H](C)CO)C(=O)c2cccc(NC(=O)Nc3ccccc3)c2O[C@@H]1CN(C)Cc1ccc(Oc2ccccc2)cc1
    -91[16.7 µM]	-3
- COc1ccc(NC(=O)N(C)C[C@H]2Oc3c(NC(=O)Nc4ccc5c(c4)OCO5)cccc3C(=O)N([C@H](C)CO)C[C@H]2C)cc1
    -6[16.7 µM]	10
- C[C@@H]1CCCCO[C@@H](CN(C)C(=O)Nc2ccccc2)[C@H](C)CN([C@H](C)CO)C(=O)c2cc(NC(=O)Nc3cccc4ccccc34)ccc2O1
    -27[16.7 µM]	-4
- CC(C)NC(=O)N(C)C[C@@H]1Oc2ccc(NC(=O)C3CC3)cc2C(=O)N([C@@H](C)CO)C[C@H]1C
    -3[16.7 µM]	-2
- C[C@H]1CN([C@@H](C)CO)C(=O)Cc2cc(NC(=O)C3CC3)ccc2O[C@H]1CN(C)C(=O)NC1CCCCC1
    -4[16.7 µM]	-2
- C[C@H](CO)N1C[C@H](C)[C@H](CN(C)Cc2ccc(C(F)(F)F)cc2)Oc2c(NC(=O)Nc3ccc4c(c3)OCO4)cccc2C1=O
    17[16.7 µM]	5
- C[C@@H]1CN([C@H](C)CO)C(=O)Cc2cc(NS(=O)(=O)c3cn(C)cn3)ccc2O[C@@H]1CN(C)Cc1ccc(Cl)c(Cl)c1
    5[16.7 µM]	-4
- COc1ccc(S(=O)(=O)N(C)C[C@H]2Oc3c(NS(=O)(=O)c4c(C)noc4C)cccc3C(=O)N([C@H](C)CO)C[C@H]2C)cc1
    24[16.7 µM]	-1
- CNC[C@H]1Oc2ccc(NS(=O)(=O)c3cn(C)cn3)cc2C(=O)N([C@@H](C)CO)C[C@H]1C
    7[16.7 µM]	6
- O=C(C[C@H]1CC[C@H](NC(=O)c2cnccn2)[C@@H](CO)O1)NCc1ccccc1F
    -2[16.7 µM]	-13
- COCCNC(=O)C[C@H]1C[C@H]2c3cc(NC(=O)c4ccc5c(c4)OCO5)ccc3O[C@H]2[C@H](CO)O1
    -2[16.7 µM]	5
- C[C@H](CO)N1C[C@H](C)[C@H](CN(C)S(=O)(=O)c2ccc(Cl)cc2)OCCCC[C@H](C)Oc2ccc(NS(C)(=O)=O)cc2C1=O
    -47[16.7 µM]	14
- CO[C@H]1CN(C)C(=O)c2cc(NC(=O)c3cnccn3)ccc2OC[C@H](C)NC[C@H]1C
    1[16.7 µM]	-7
- C[C@@H]1CN([C@H](C)CO)C(=O)Cc2cc(NC(=O)CCN3CCOCC3)ccc2O[C@@H]1CN(C)S(=O)(=O)c1cn(C)cn1
    3[16.7 µM]	5
- COCC#Cc1cnc2c(c1)C(=O)N([C@H](C)CO)C[C@@H](C)[C@@H](CN(C)C(=O)c1ccc3c(c1)OCO3)O2
    -105[16.7 µM]	7
- O=C(C[C@@H]1C=C[C@H](NC(=O)c2ccccc2)[C@H](CO)O1)Nc1ccc(-c2ccccc2)cc1
    -5[16.7 µM]	-9
- C[C@@H]1CN([C@H](C)CO)C(=O)c2cc(NC(=O)c3ccccc3)ccc2O[C@@H](C)CCCCO[C@@H]1CN(C)S(=O)(=O)c1cccs1
    9[16.7 µM]	-3
- CC(C)C#Cc1cnc2c(c1)C(=O)N([C@H](C)CO)C[C@@H](C)[C@@H](CN(C)C(=O)Nc1cccc(F)c1)O2
    -9[16.7 µM]	5
- C[C@@H]1CN([C@@H](C)CO)C(=O)c2cc(NS(=O)(=O)c3ccc(F)cc3)ccc2O[C@@H]1CN(C)CC1CCCCC1
    -26[16.7 µM]	9
- C[C@@H]1CCCCO[C@@H](CN(C)S(=O)(=O)c2ccc(Cl)cc2)[C@H](C)CN([C@@H](C)CO)C(=O)c2cc(NC(=O)Nc3ccccc3)ccc2O1
    29[16.7 µM]	-11
- CNC[C@H]1OCCCC[C@@H](C)Oc2ccc(NS(=O)(=O)c3cn(C)cn3)cc2C(=O)N([C@@H](C)CO)C[C@@H]1C
    -10[16.7 µM]	2
- C[C@H](O)C#Cc1cnc2c(c1)C(=O)N([C@H](C)CO)C[C@H](C)[C@@H](CN(C)Cc1ccc(-c3ccccc3)cc1)O2
    12[16.7 µM]	14
- O=C(C[C@@H]1CC[C@@H](NC(=O)C2CCC2)[C@H](CO)O1)NCc1ccncc1
    6[16.7 µM]	9
- C[C@H](CO)N1C[C@H](C)[C@@H](CN(C)C(=O)CN(C)C)Oc2ncc(C#CCC3CCCC3)cc2C1=O
    -4[16.7 µM]	63
- CNC(=O)C[C@H]1CC[C@H]2[C@H](COc3ccc(NC(=O)c4ccc(F)c(F)c4)cc3C(=O)N2C)O1
    -26[16.7 µM]	4
- C[C@H]1CN([C@@H](C)CO)C(=O)c2cccc(NC(=O)Nc3ccccc3)c2O[C@@H]1CN(C)Cc1ccc(Cl)c(Cl)c1
    62*[16.7 µM]	19
- Cc1ccccc1S(=O)(=O)N[C@@H]1CC[C@H](CCn2cc(-c3ccc(F)cc3)nn2)O[C@H]1CO
    -14[16.7 µM]	-4
- CNC[C@H]1Oc2c(NC(=O)Nc3ccc4c(c3)OCO4)cccc2C(=O)N([C@@H](C)CO)C[C@H]1C
    3[16.7 µM]	17
- Cc1ccccc1S(=O)(=O)NCC[C@@H]1CC[C@@H](NC(=O)Nc2cccc(F)c2)[C@H](CO)O1
    i	1
- C[C@@H]1CN([C@H](C)CO)C(=O)c2cccc(NC(=O)C3CCOCC3)c2O[C@@H]1CN(C)S(C)(=O)=O
    13[16.7 µM]	-18
- O=C(N[C@@H]1CC[C@@H](CCNC(=O)C2CCCCC2)O[C@@H]1CO)c1ccncc1
    9[16.7 µM]	-4
- C[C@@H](NC(=O)C[C@@H]1C=C[C@H](NC(=O)C2CC2)[C@H](CO)O1)c1ccccc1
    -18[16.7 µM]	-1
- C[C@@H]1CN([C@H](C)CO)S(=O)(=O)c2ccc(-c3ccncc3)cc2O[C@@H]1CN(C)C(=O)C1CCCCC1
    24[16.7 µM]	-12
- COc1ccc(CN(C)C[C@H]2Oc3ccc(NC(=O)Nc4cccc5ccccc45)cc3C(=O)N([C@H](C)CO)C[C@@H]2C)cc1
    24[16.7 µM]	-6
- N#C[C@H]1[C@H](c2ccc(-c3ccc(F)cc3)cc2)[C@@H](CO)N1c1nc(-c2ccccc2)cs1
    25[16.7 µM]	-15
- C[C@H]1CN([C@@H](C)CO)C(=O)c2cccc(NC(=O)NC3CCCCC3)c2O[C@H]1CN(C)C(=O)Nc1ccc(F)cc1
    -1[16.7 µM]	-8
- CNC(=O)C[C@H]1CC[C@@H]2[C@@H](COc3ccc(NC(=O)c4cccc(OC)c4)cc3C(=O)N2C)O1
    1[16.7 µM]	-2
- CC(C)NC(=O)Nc1ccc2c(c1)C(=O)N([C@@H](C)CO)C[C@@H](C)[C@H](CN(C)Cc1ccc3c(c1)OCO3)OCCCC[C@H](C)O2
    -4[16.7 µM]	-1
- C[C@@H]1CN([C@@H](C)CO)C(=O)c2cccc(NS(=O)(=O)c3ccc(Cl)cc3)c2O[C@@H]1CN(C)Cc1ccc(C(=O)Nc2ccccc2N)cc1
    -152[16.7 µM]	11
- Cc1ccc(S(=O)(=O)Nc2ccc3c(c2)CC(=O)N([C@H](C)CO)C[C@@H](C)[C@@H](CN(C)S(=O)(=O)c2cn(C)cn2)O3)cc1
    -7[16.7 µM]	-1
- O=C(C[C@@H]1C[C@@H]2c3cc(NC(=O)Nc4ccccc4F)ccc3O[C@@H]2[C@@H](CO)O1)NCc1cc(F)ccc1F
    16[16.7 µM]	0
- CO[C@@H]1CN(C)C(=O)c2cc(NS(C)(=O)=O)ccc2OC[C@H](C)N(CC2CCOCC2)C[C@@H]1C
    -4[16.7 µM]	-5
- CO[C@@H]1CN(C)C(=O)c2ccc(NC(C)=O)cc2OC[C@H](C)N(C(=O)Cc2cccnc2)C[C@H]1C
    -7[16.7 µM]	-1
- COc1ccc(S(=O)(=O)N(C)C[C@H]2Oc3ccc(NS(=O)(=O)c4cccs4)cc3C(=O)N([C@@H](C)CO)C[C@H]2C)cc1
    -97[16.7 µM]	-4
- C[C@@H]1CN([C@@H](C)CO)C(=O)c2cc(C#Cc3cccc(F)c3)cnc2O[C@H]1CN(C)C(=O)C1CCOCC1
    -12[16.7 µM]	-15
- CC(C)C#Cc1cnc2c(c1)C(=O)N([C@H](C)CO)C[C@H](C)[C@@H](CN(C)C(=O)Cc1ccncc1)O2
    -12[16.7 µM]	-1
- COCc1cn(CC[C@@H]2CC[C@@H](NC(=O)c3ccccc3)[C@@H](CO)O2)nn1
    5[16.7 µM]	2
- C[C@@H]1CN([C@@H](C)CO)C(=O)c2cc(NC(=O)Cc3cn(C)c4ccccc34)ccc2O[C@H]1CN(C)Cc1ccc(C(F)(F)F)cc1
    5[16.7 µM]	5
- C[C@@H]1CCCCO[C@H](CN(C)S(=O)(=O)c2ccccc2)[C@H](C)CN([C@H](C)CO)C(=O)c2cc(NC(=O)Nc3ccccc3)ccc2O1
    12[16.7 µM]	4
- C[C@H]1CN([C@@H](C)CO)C(=O)c2cccc(NC(=O)Nc3ccc(F)cc3)c2O[C@@H]1CN(C)S(=O)(=O)c1ccccc1
    23[16.7 µM]	10

(list continues)
Below each SMILES – HIV Env fusion	Yeast UUG start
- C[C@@H]1CCCCO[C@@H](CN(C)Cc2ccc(C(=O)O)cc2)[C@@H](C)CN([C@H](C)CO)C(=O)c2cc(NC(=O)C3CCCCC3)ccc2O1
    9[16.7 µM]	-8
- C[C@@H]1CCCCO[C@@H](CN(C)S(C)(=O)=O)[C@@H](C)CN([C@H](C)CO)C(=O)c2cc(NC(=O)Nc3ccc(C(F)(F)F)cc3)ccc2O1
    34[16.7 µM]	-14
- CCC(=O)Nc1ccc2c(c1)OC[C@@H](C)N(C(=O)C1CC1)C[C@@H](C)[C@@H](OC)CN(C)C2=O
    10[16.7 µM]	-3
- O=C1O[C@H](c2ccccc2)[C@H](c2ccccc2)N2[C@H]1[C@@H](C(=O)N1CCCCCCC1)[C@]1(C(=O)Nc3ccc(C#CC4=CCCCC4)cc31)[C@H]2c1ccccc1OCCO
    7[16.7 µM]	-12
- Cc1noc(C)c1S(=O)(=O)N(C)C[C@@H]1OCCCC[C@H](C)Oc2ccc(NS(C)(=O)=O)cc2C(=O)N([C@@H](C)CO)C[C@H]1C
    -10[16.7 µM]	-2
- Cc1noc(C)c1NC(=O)N(C)C[C@H]1Oc2ccc(NC(=O)Nc3ccc4c(c3)OCO4)cc2C(=O)N([C@H](C)CO)C[C@H]1C
    3[16.7 µM]	-35
- Cc1c(NC(=O)CC#N)c(=O)n(-c2ccccc2)n1C
    -14[16.7 µM]	-1
- Cc1noc(C)c1NC(=O)N(C)C[C@@H]1Oc2ccc(NC(=O)Nc3ccc4c(c3)OCO4)cc2CC(=O)N([C@H](C)CO)C[C@@H]1C
    2[16.7 µM]	-12
- Cc1noc(C)c1S(=O)(=O)Nc1ccc2c(c1)CC(=O)N([C@H](C)CO)C[C@@H](C)[C@H](CN(C)Cc1ccccc1)O2
    -9[16.7 µM]	-10
- C[C@H]1CCCCO[C@@H](CN(C)Cc2ccncc2)[C@@H](C)CN([C@@H](C)CO)C(=O)c2cc(NS(C)(=O)=O)ccc2O1
    20[16.7 µM]	-14
- O=C(C[C@@H]1CC[C@H]2[C@@H](COC[C@H](O)CN2C(=O)Nc2ccc(Cl)c(Cl)c2)O1)NC1CCC1
    3[16.7 µM]	16
- C[C@@H]1CN([C@@H](C)CO)C(=O)c2cc(NS(C)(=O)=O)ccc2O[C@@H](C)CCCCO[C@@H]1CN(C)S(=O)(=O)c1ccc(Cl)cc1
    10[16.7 µM]	12
- Cc1nn(C)cc1NC(=O)C[C@H]1CC[C@@H]2[C@H](COc3ccc(NC(=O)NC(C)C)cc3C(=O)N2C)O1
    5[16.7 µM]	11
- C[C@@H]1CN([C@H](C)CO)C(=O)c2cc(/C=C/c3ccccc3)cnc2O[C@@H]1CN(C)Cc1cccc(C(=O)O)c1
    -4[16.7 µM]	2
- C[C@H]1CCCCO[C@H](CN(C)C)[C@@H](C)CN([C@@H](C)CO)C(=O)c2cc(NC(=O)CCC(F)(F)F)ccc2O1
    -7[16.7 µM]	16
